High-throughput results: PubChem, National Center for Advancing Translational Sciences (NCATS)
NS1 function inh: inhibitors of influenza NS1 protein function; AID 2326; S. cerevisiae slowed by influenza A NS1, growth recovery by OD600; Potency, µM (series often up to 46.1 µM), inactives show at the top dose activity, positive = more growth; 0.4% of 270,000 active; active means well fitted rising curve with a large enough effect; inconclusive means small, poorly fitted or top-dose-only effect; inactive means no such curve, though single readings can be large or run the other way; further: nearly all actives have a fitted effect of over 50% in size
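Read-out: OD600 growth recovery of NS1-expressing budding yeast. Cells grown overnight at 30C in -URA glucose medium, washed, resuspended and diluted 1:100 in 2% galactose assay medium, pH 6.0. Same strain lacking NS1 served as positive control.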
Marburg entry inh: inhibitors of Marburg virus binding or cell entry | Marburg virus pseudotyped entry inhibition, cell reporter; control for the full effect not named in the record; about a third of the inactives were read at about 46 µM | Potency, µM (titrated, usually from 37.8 µM), without a hit: top-dose activity change, negative = inhibition, most hits filed as inhibitors | 1.8% of 300,000 active | AID 540276; active = well fitted inhibition curve with a large enough effect; inconclusive = small, poorly fitted or top-dose-only effect, or effect the other way; inactive = flat fitted curve, though single readings scatter; tested in HEK293 cells; about a fifth of its hits are not listed in these tables; further: on the % scale 0 is the no-effect control and ±100 the full control effect; luciferase read-out
RE007 growth inh: less growth of the S. pombe RE007 Vpr strain | S. pombe RE007 Vpr strain, BacTiter-Glo ATP luminescence, 24 h; control for the full effect not named in the record | Potency, µM (top dose mostly 92.2 µM), for inactives: top-dose activity change, negative = less growth | 0.21% of 360,000 active; active = well fitted falling curve with a large enough effect; inconclusive = small, poorly fitted or top-dose-only effect; inactive = no such curve, though single readings can be large or run the other way;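 further: on the % scale 0 is the no-effect control and ±100 the full control effect; nearly all actives have a fitted effect of over 50% in size; the assay follows cell death caused by Vpr and the record does not say whether a fall means rescue or toxicity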
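Fission yeast strain RE007, carrying one chromosomally integrated HIV-1 vpr copy, was seeded at OD 0.01 in PMG+AL medium with 23 nL pinned compound. After 24 h at 30 °C and 99% humidity, viability was read by BacTiter-Glo luminescence.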
Lassa entry inh: inhibitors of Lassa virus binding or cell entry | Lassa virus pseudotype entry inhibition, cell reporter; control for the full effect not named in the record | Potency, µM (top dose mostly 37.9 µM), inactives show at the highest dose activity change, negative = inhibition, actives largely listed as inhibitors | 1.2% of 300,000 active | AID 540256; active means well fitted inhibition curve with a large enough effect; inconclusive means small, poorly fitted or top-dose-only effect, or effect the other way; inactive means flat fitted curve, though single readings scatter; tested in HEK293 cells; further: on the % scale 0 is the no-effect control and ±100 the full control effect; nearly all actives have a fitted effect of over 50% in size; luciferase read-out
StopGo reporter: FMDV 2A StopGo reporter, luciferase signal; human cells with a luciferase reporter of 2A StopGo recoding; control for the full effect not named in the record; Potency, µM (titrated, usually from 57.9 µM), inactives show at the highest dose signal change, negative = less light; 1.2% of 410,000 active; AID 1159524; active = well fitted falling curve with a large enough effect; inconclusive = small, poorly fitted or top-dose-only effect; inactive = no such curve, though single readings can be large or run the other way; tested in HEK293T cells; further: on the % scale 0 is the no-effect control and ±100 the full control effect; nearly all actives have a fitted effect of over 45% in size; luciferase light after 4 h
SARS PLpro yeast: blocks SARS-CoV papain-like protease in a yeast assay. S. cerevisiae expressing SARS-CoV PLpro, growth rescue; control for the full effect not named in the record. Potency, µM (titrated, usually from 32.9 µM), inactives show at the top dose activity, positive = growth rescue. 0.19% of 330,000 active; active means well fitted rising curve with a large enough effect; inconclusive means small, poorly fitted or top-dose-only effect; inactive means no such curve, though single readings can be large or run the other way; further: 0% is about no effect; nearly all actives have a fitted effect of over 55% in size; growth read by luminescence after 48 h
Cruzain Triton: blocks cruzain activity in presence of Triton detergent. 0.43% of 200,000 active. purified cruzain, Z-FR-AMC fluorescence, 0.01% Triton. Potency, µM, for inactives: max response, negative = inhibition, actives largely listed as inhibitors. P25779;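 further: plate controls were neutral wells for no effect and buffer without enzyme for full effect; nearly all actives have a fitted effect of over 40% in size; top concentration of the series not given in the record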
Target sequence (P25779 123-467 limits assumed): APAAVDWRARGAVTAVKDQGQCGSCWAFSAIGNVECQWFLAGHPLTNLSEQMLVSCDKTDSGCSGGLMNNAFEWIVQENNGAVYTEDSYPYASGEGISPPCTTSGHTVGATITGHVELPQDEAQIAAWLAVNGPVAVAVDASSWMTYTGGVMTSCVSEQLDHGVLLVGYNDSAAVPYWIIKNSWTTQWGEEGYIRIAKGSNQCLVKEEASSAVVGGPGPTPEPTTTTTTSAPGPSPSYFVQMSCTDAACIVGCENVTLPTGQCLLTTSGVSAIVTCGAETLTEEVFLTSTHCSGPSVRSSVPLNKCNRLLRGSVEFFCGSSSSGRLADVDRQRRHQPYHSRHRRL
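Sodium acetate buffer (100 mM, pH 5.5) containing 5 mM DTT and 0.01% Triton X-100 hosted 1.5 nM cruzain and test compound for 15 min at room temperature. Cleavage of 2 uM Z-FR-AMC was then tracked by fluorescence.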
Cruzain noTriton: cruzain (T. cruzi) inhibition without detergent | Potency, µM, inactives show max response, negative = inhibition, most hits filed as inhibitors | purified cruzain, Z-FR-AMC fluorescence, no detergent | 2.3% of 200,000 active | P25779;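 further: plate controls were enzyme without inhibitor for no effect and buffer without enzyme for full effect; nearly all actives have a fitted effect of over 40% in size; top concentration of the series not given in the record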
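Purified cruzain at 1.5 nM, pre-incubated 15 min with compound at room temperature in 100 mM sodium acetate pH 5.5, 5 mM DTT, 0.00005% Triton X-100. Reaction started with 2 uM Z-FR-AMC; AMC fluorescence increase over 60 s gives rate.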
* hit, by the source's call; u = inconclusive; x = not tested or not shown; & = joins results of further samples; [ ] = remark or other dose. Unless noted, the call rests on the fitted dose curve; in most records, active means well fitted curve in the direction sought with a large enough effect; inconclusive means small, poorly fitted or top-dose-only effect, or another doubt; inactive means no such curve, though single readings can be large; an effect the other way counts as inactive or inconclusive. Potency means the concentration at half of the fitted maximal effect. Random draw from the library; 4.6% or so of the library scored in one or more.

Structure	NS1 function inh	Marburg entry inh	RE007 growth inh	Lassa entry inh	StopGo reporter	SARS PLpro yeast	Cruzain Triton	Cruzain noTriton
COc1ccccc1NC(=O)C1CCC(CNS(=O)(=O)c2ccc3c(c2)CC(C)N3C(C)=O)CC1 (stereo not drawn)	x	x	x	u	32µM*	x	-1.3%	u
O=C(Cn1c(=O)sc2ccccc21)NCc1ccccn1	5%	x	-2%	x	46%[activator]	6%	-0.8%	6%
c1ccc(C(c2ccccc2)c2noc(CN3CCN(C4CCCC4)CC3)n2)cc1	0%	x	-1%	x	-8%	-2%	x	x
CCOC(=O)c1cnn(-c2nc(-c3ccccc3)cs2)c1C(F)(F)F	2%	-3%	-9%	-12%	-11%	-5%	-8.1%	3%
CCOC(=O)c1[nH]c2cc3c(cc2c1NC(=O)CN1CCN(CCO)CC1)OCO3	5%	-26%	-9%	-5%	8%	2%	x	x
CN1CC(C(=O)O)Cc2c1ccc1ccccc21 (stereo not drawn)	4%	u	-9%	21%[46.1 µM]	-14%	-1%	x	x
CCn1c(=S)sc2c(=O)n(-c3ccccc3)c(SCC(=O)NCc3ccco3)nc21	-23%	u	14%	2%	-24%	5%	-1.7%	-9%
O=C1c2ccccc2C(=O)C1c1ccccn1	-5%	x	-10%	x	0%	0%	x	x
CCc1noc(C)c1C(=O)Nc1cccc2ncccc12	6%	x	2%	x	-13%	4%	x	x
CCc1ccc(-n2nc(CO)c(C(=O)NC)n2)cc1	x	u	x	5%[46.1 µM]	39%[activator]	x	-2.3%	-7%
CCCCCCCC(=O)N/N=C(\C)c1ccc(O)cc1O	-10%	3%	-7%	u	-25%	-5%	-4.5%	u
CC1=Nn2c(nc3sc4c(c3c2=O)CCCC4)SC1	3%	u	-20%	12%	43%[activator]	-30%	-8.9%	u
CCOc1ccc(-c2nnc3ccc(SC)nn23)cc1	0%	2%	4%	17%	22%	-3%	1.5%	2%
CC(C)N(Cc1nc(-c2ccc(Cl)cc2)no1)C(=O)CCC1CCCC1	-70%	x	-2%	x	-17%	-28%	-3.0%	4%
COC(=O)c1ccc(-c2nc(-c3cccs3)no2)cc1	-2%	x	-10%	x	u	1%	3.2%	-3%
Cc1ccc(NC(=O)N2CCCC2C(=O)NCc2cccs2)cc1 (stereo not drawn)	18%	4%	-1%	7%	6%	-14%	0.6%	-17%
CCCCn1c(N)c(N(CCOC)C(=O)C(C)N2C(=O)c3ccccc3C2=O)c(=O)[nH]c1=O (stereo not drawn)	x	u	-8%	-30%	-22%	-8%	x	x
Cc1ccccc1NC(=O)c1ccc(NC(=O)C2CCCO2)cc1 (stereo not drawn)	5%	u	u	8%	38%[activator]	6%	x	x
O=C(CN1C(=O)C2(SCC(=O)N2c2ccccc2)c2ccccc21)NCc1ccccc1Cl (stereo not drawn)	x	x	x	-11%[46.1 µM]	-12%	x	-4.3%	-4%
Cc1cccc(C(=O)c2cn[nH]c2-c2ccccc2O)c1	-2%	x	7%	x	-10%	0%	x	x
O=C(NCc1ccco1)c1sc(=S)n2c1[nH]c(=O)c1ccccc12	-97%	16%	-15%	16%	u	-30%	-9.4%	-6%
CCC1CCCCN1C(=O)COC(=O)c1cccs1 (stereo not drawn)	x	u	-2%	0%	26%	-1%	x	x
Cc1cc(NC(=O)c2ccccc2)ccc1NC(=O)Cc1ccccc1	10%	3%	10%	1%	13%	0%	x	x
C=CCc1ccccc1OCc1nc2ccccc2n1CC	x	u	x	-1%[46.1 µM]	-21%	x	-9.5%	-11%
CCOC(=O)c1sc2nc(C)nc(SCC(=O)NC(C)CCc3ccccc3)c2c1C (stereo not drawn)	2%	2%	-3%	-3%	-14%	8%	2.5%	-25%
O=C(NCCc1ccccn1)c1cc(-c2ccccc2Cl)nc2ccccc12	17%	1%	-12%	6%	-30%	16%	2.6%	10%
CSc1nc(NCCOCCO)c2sc3nc(-c4ccco4)c4c(c3c2n1)CCC4	u	u	1%	u	40µM*	1%	7.9µM*	25%
COc1ccc(CC(=O)NC(C)c2nnc(SCC(=O)Nc3nc(C)cs3)n2C)cc1 (stereo not drawn)	-6%	19%&19%	1%	4%	5%	7%	3.5%	11%
O=C(CN1CCCc2ccccc21)NC(=O)NC1CCCCC1	x	-11%[46.1 µM]	34%	1%	-6%	-3%	x	x
CCCCOc1ccc(C(C)=O)cc1Cc1c(O)[nH]c(=S)[nH]c1=O	14%	x	-16%	x	10%	6%	x	x
Cc1cc(NC(=O)CN2CCCC(C)C2)n(-c2nc3ccccc3s2)n1 (stereo not drawn)	1%	18%	28%	26%	u	x	1.7%	19%
Cc1ccccc1CNC(=O)C1CCCCN1S(=O)(=O)c1ccc(F)cc1 (stereo not drawn)	x	x	x	-5%[46.1 µM]	-12%	x	-1.9%	-11%
O=C(Cc1nnc(NC(=O)Nc2ccccc2F)s1)NCc1ccccc1	-1%	-14%[46.1 µM]	4%	-11%	-5%	0%	x	x
O=C(CN1C(=O)NC2(CCCCC2)C1=O)N1CCN(S(=O)(=O)/C=C/c2ccccc2)CC1	x	19%	-14%	11%	-19%	-2%	x	x
Cc1c(C(=O)N2CCN(C/C=C/c3ccccc3)CC2)oc2c(F)cccc12	x	1%	-16%	7%	-20%	0%	x	x
O=C(CCn1c(=O)[nH]c2ccccc2c1=O)N1CC=C(c2ccccc2)CC1	x	-18%[46.1 µM]	-6%	5%	3%	-7%	x	x
Cc1cc(=O)n(C(C)C(=O)NCc2ccccc2Cl)c2c1c(C)nn2-c1ccccc1 (stereo not drawn)	x	x	x	12%[46.1 µM]	9%	x	7.2%	-18%
Nn1c(SCC(=O)NCCC2=CCCCC2)nnc1C(F)(F)F	3%	u	0%	26%	-19%	9%	1.8%	5%
COCCNC(=S)N/N=C/c1ccc(N2CCOCC2)cc1	u	23µM*	-11%	u	-6%	-9%	u	-21%
Cc1ccc(S(=O)(=O)CC(=O)Nc2sc3c(c2C#N)CCCCC3)cc1	x	x	x	13%[46.1 µM]	-14%	x	-3.0%	-10%
CCC(Sc1ccc2nnc(-c3ccc(F)cc3)n2n1)C(=O)O (stereo not drawn)	3%	16%	4%	23%	8%	0%	0.9%	-8%
CCS(=O)(=O)c1nnnn1-c1ccccc1S(C)(=O)=O	14µM*	u	0%	20%[14.3 µM]	40µM*	1%	4.7%	-9%
O=C(c1ccc([N+](=O)[O-])cc1)N1CCN(Cc2ccccc2[N+](=O)[O-])CC1	-2%	u	-9%	-22%[46.1 µM]	u	0%	x	x
CCCCS(=O)(=O)N1CCCC(C(=O)NCC2CCCO2)C1 (stereo not drawn)	8%	1%	8%	15%	-7%	24%	x	x
CCC1=C(OC(=O)N(CC)CC)N2C(=O)OC(=NCC(=O)OC)[C@]2(Cc2ccccc2)[C@H]2C1=CC[C@H]1C(=O)N(c3ccccc3)C(=O)[C@H]12	-6%	x	6%	x	7%	1%	-4.5%	u
O=C(CCNS(=O)(=O)c1cccc2nonc12)NC1CCCc2ccccc21 (stereo not drawn)	-8%	-7%	-11%	18%	5%	-1%	0.6%	0%
O=C(CCCCn1c(=O)[nH]c2ccsc2c1=O)NCc1cccnc1	13%	19%	-5%	-3%	-11%	2%	0.6%	-1%
CC(=O)c1ccc(OCCCC(=O)OCC(=O)Nc2ccc3[nH]c(=O)[nH]c3c2)cc1	x	u	3%	-6%	-7%	-1%	x	x
CC1CCN(CCCCOc2ccccc2Br)CC1	-9%	u	3%	u	0%	-12%	2.5%	-2%
CCn1c(C(=O)NCc2ccc(OC)cc2)cc2sc(Cl)cc21	x	u	x	x	5%	x	-8.4%	1%
O=C(c1ccc(COc2c(F)c(F)cc(F)c2F)o1)N1CCN(c2ccc(Cl)cc2)CC1	-18%	3%&-5%	4%	-28%	x	-3%	-4.3%	-4%
CC1CCN(S(=O)(=O)c2ccc3c(c2)C(=NO)c2cc(S(=O)(=O)N4CCC(C)CC4)ccc2-3)CC1	30%	u	13%	2.5µM*	u	-2%	-1.7%	u
CCOC(=O)c1oc2ccccc2c1NC(=O)c1ccc(S(=O)(=O)N2CCCC2)cc1	5%	-23%	-1%	-4%	-11%	-1%	1.6%	-11%
CCCCn1c(NCc2cccs2)nc2ccccc21	-1%	-1%[46.1 µM]	-12%	-2%[46.1 µM]	-20%	0%	x	x
O=C(O)c1cc(-c2cccnc2)nc2ccccc12	1%	22%[46.1 µM]	22%	9%	11%	1%	x	x
O=C1CC(Cc2ccccc2)C(=O)N1c1ncccn1 (stereo not drawn)	-3%	11%[46.1 µM]	10%	7%[46.1 µM]	2%	0%	x	x
COc1ccc(N(CC(=O)N2CCCCCC2)S(=O)(=O)c2c(C)[nH]c(=O)[nH]c2=O)cc1	1%	0%	-4%	x	-22%	1%	0.9%	-3%
COC(CNC(=O)c1cccc2c1C(=O)N(Cc1cccnc1)C2)OC	5%	u	5%	-1%	-12%	-2%	2.1%	1%
